Beta2AR agonist = agonists of human beta-2 adrenergic receptor inducing internalization; P07550; Am2.2-beta2AR cells, FAP receptor internalization, flow cytometry; reference of the scale not given here; response, % (test concentration not listed); 0.43% of 340,000 active; AID 504454;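 active = response above a set limit, near 3 SD of response in nonfluorescent compounds, cut at about 42% in these data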;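 also: stock transfer was 100 nL into about 11 µL; a reference agonist was the positive control; negative values mostly stem from fluorescent compounds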
Target sequence (P07550 whole entry, looked up): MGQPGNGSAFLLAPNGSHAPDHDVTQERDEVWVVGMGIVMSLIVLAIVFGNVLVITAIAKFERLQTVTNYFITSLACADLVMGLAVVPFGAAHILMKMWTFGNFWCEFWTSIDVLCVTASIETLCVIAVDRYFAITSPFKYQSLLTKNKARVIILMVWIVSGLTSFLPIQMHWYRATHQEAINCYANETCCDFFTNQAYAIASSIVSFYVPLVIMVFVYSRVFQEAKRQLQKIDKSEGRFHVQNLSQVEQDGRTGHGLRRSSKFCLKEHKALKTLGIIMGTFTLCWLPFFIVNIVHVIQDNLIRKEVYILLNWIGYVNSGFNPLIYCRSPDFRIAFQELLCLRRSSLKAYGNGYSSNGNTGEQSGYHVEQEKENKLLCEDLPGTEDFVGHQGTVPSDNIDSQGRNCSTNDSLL
LANA-H2B inh = blocks KSHV LANA binding to histone H2A/H2B; AID 2629; cell-free LANA-H2A/H2B peptide, fluorescence polarization; 0.6% of 320,000 active; Q9QR71; inhibition, % (no concentration beside the values); in the data active = inhibition mostly above about 10%, no sharp cut-off; inactive = mostly below about 6.7%;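 also: stock transfer was 7.5 nL into about 10 µL; 0% = median of vehicle wells and 100% = median of positive control wells; one replicate is shown; the record names a cut of 25% in any replicate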
UCH37 inh = inhibitors of human deubiquitinating enzyme UCH37; Q9Y5K5; purified proteasome/UCH37, Ub-AMC cleavage fluorescence; inhibition, % (no concentration beside the values); 0.33% of 330,000 active;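 active = mean of two replicates above 20%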;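 also: 0% = compound-free wells with enzyme and 100% = wells lacking proteasome; stock transfer was 100 nL into about 20 µL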
Target sequence (Q9Y5K5 whole entry, looked up): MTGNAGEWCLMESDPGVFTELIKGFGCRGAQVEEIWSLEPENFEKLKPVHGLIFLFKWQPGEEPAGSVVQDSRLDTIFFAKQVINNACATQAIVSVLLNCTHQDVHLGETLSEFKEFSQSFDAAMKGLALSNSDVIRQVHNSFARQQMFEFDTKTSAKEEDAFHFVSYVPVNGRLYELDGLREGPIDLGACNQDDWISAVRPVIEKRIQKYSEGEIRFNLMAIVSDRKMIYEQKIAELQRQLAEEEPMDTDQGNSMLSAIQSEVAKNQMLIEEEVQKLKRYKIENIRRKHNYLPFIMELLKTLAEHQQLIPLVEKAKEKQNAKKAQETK
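assay system = human UCH37 enzyme supplied as purified proteasome complex | amount = proteasome at 0.15 nM in the dispensed enzyme solution | schedule = 30 min compound-proteasome preincubation then 25 min substrate reaction, room temperature | measured by = fluorescence, ex 355 nm, em 460 nm | benchmarks = no-proteasome wells (full inhibition) and compound-free wells (no inhibition)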
Vif A3G = HIV-1 Vif–A3G interaction blockers – biochemical, TR-FRET, GST-Vif 1-94, biotin-A3G peptide, dose response retest, primary screen (AID 1117319). 0.57% of 260,000 active. TR-FRET GST-Vif / biotin-A3G peptide binding; higher % means a stronger effect; test concentration not given here; strong numbers were not always called active. inhibition, %; hits with a dose series show IC50 in µM;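 active = above the screen mean plus three standard deviations and confirmed in dose response; inconclusive = results disagree or hit not tested in dose response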;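 also: Vif residues 1-94 fused to GST binding biotinylated APOBEC3G peptide 110-148; 0% = full assay without inhibitor and 100% = GST in place of GST-Vif; retest series ran down from 100 µM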
A1 inh = inhibitors of the anti-apoptotic protein A1, read as caspase activation; 0.066% of 330,000 active; MEF A1-2A-BIM cells, Caspase-Glo 3/7 luminescence, 3 h; percent of clofoctol response, vehicle zero; caspase activation, % (concentration not given with the values);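 active = over half of replicate activation scores above 10%, or exactly half above 10 with the replicate mean above 10; inconclusive = replicate mean below 10 yet half the replicates above 10; inactive = over half of replicates below 10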;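 also: wells of about 30 µL received 50 nL stock; many hits fall short of the cut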
Ecoli growth = inhibitors of Escherichia coli growth; OD600, 23 h; hits give low values; OD600 absorbance (concentration not given with the values); 0.21% of 330,000 active; AID 1053175;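 active = OD600 absorbance below the run mean of sample wells minus 3.6 SD, in any replicate, cut at about 0.56 in these data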;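 also: stock transfer was 300 nL into about 60 µL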
HNF4A DNA FP = change in binding of human HNF4 alpha to DNA. P41235. HNF4a-FITC DNA binding, fluorescence polarization, 1 h. activity change, % at 10 µM. 0.3% of 360,000 active; in the data active = activity change above about 30%, passing the limit was not always enough;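 also: controls were the assay level and a saturating level of protein; the project sought stronger binding though the title names inhibitors; some compounds called inactive have numbers as strong as hits; positive values seem to mean higher polarization but the record does not say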
Numbers without * were called inactive; & = joins results of further samples. Outcome played no part in choosing rows (roughly 2.1% active in at least one column).

Results for Cc1ccnc(-n2c(CCN3C(=O)c4ccccc4C3=O)nc3ccccc3c2=O)c1 ?
Beta2AR agonist: -12; LANA-H2B inh: 8.5; UCH37 inh: -0.1; Vif A3G: 72%; A1 inh: 0.2; Ecoli growth: 0.67; HNF4A DNA FP: -0.9

Results for CCCCNC(=S)N/N=C/c1ccc(OCC(=O)Nc2c(C)cc(C)cc2C)c(OC)c1 ?
Beta2AR agonist: -2; LANA-H2B inh: 2.6; A1 inh: inconclusive; HNF4A DNA FP: -2.2

Results for Cc1cc(OCC(=O)Nn2cnnc2)ccc1Br ?
Beta2AR agonist: 29; LANA-H2B inh: -3.1; UCH37 inh: 1.8; Vif A3G: 4%; A1 inh: -0.5; Ecoli growth: 0.66; HNF4A DNA FP: 0.9

How did Cc1ncoc1C(=O)N1CCc2c([nH]c3ccccc23)C1C1CCCCC1 (stereo not drawn) do in these assays?
Beta2AR agonist: 14; LANA-H2B inh: 1.3; UCH37 inh: -0.8; Vif A3G: 2%; A1 inh: 0.0; Ecoli growth: 0.73; HNF4A DNA FP: -5.0

Results for CCOC(=O)C(/C=C(\C#N)C(=O)OCC)=C(/N)N1CCN(c2ccc(OC)cc2)CC1 ?
Beta2AR agonist: 1; LANA-H2B inh: 0.4; UCH37 inh: 8.7; Vif A3G: 10%; A1 inh: 2.0; Ecoli growth: 0.77; HNF4A DNA FP: -0.3

What do the screens show for `c1ccc(-c2cnnc(N3CCOCC3)n2)cc1`?
Beta2AR agonist: -6; UCH37 inh: 2.5; Vif A3G: 3%; A1 inh: 0.0; Ecoli growth: 0.77; HNF4A DNA FP: 1.3

Results for Cc1cc(C)cc(Oc2coc3cc(OC(=O)c4cccs4)ccc3c2=O)c1 ?
Beta2AR agonist: 3; LANA-H2B inh: -4.8; UCH37 inh: -7.1; Vif A3G: 7%; A1 inh: 0.0; Ecoli growth: 0.78; HNF4A DNA FP: 0.9

How did CN(CC(=O)Nc1ccc(F)cc1)C(=O)c1ccc(OCc2cn3ccccc3n2)cc1 do in these assays?
Beta2AR agonist: -17; LANA-H2B inh: 0.3; UCH37 inh: -3.1; Vif A3G: -2%; A1 inh: -0.5; Ecoli growth: 0.65; HNF4A DNA FP: -1.1

How did OC(COc1ccc(F)cc1Cl)CN1CCc2ccccc2C1 (stereo not drawn) do in these assays?
Beta2AR agonist: -13; LANA-H2B inh: -8.1; UCH37 inh: 6.7; A1 inh: 1.6; Ecoli growth: 0.67; HNF4A DNA FP: 1.1

How did CC1CCCCC1NC(=O)NC(=O)COC(=O)c1nccnc1N (stereo not drawn) do in these assays?
Beta2AR agonist: -12; LANA-H2B inh: 5.4; UCH37 inh: inactive; Vif A3G: -1%; A1 inh: 0.3; Ecoli growth: 0.73; HNF4A DNA FP: 0.4

Results for COc1ccc(C2NC(=O)C(=O)/C2=C(\O)c2ccc(Cl)cc2)cc1OC (stereo not drawn) ?
Beta2AR agonist: -6; LANA-H2B inh: -1.0; UCH37 inh: 11; Vif A3G: -3%; A1 inh: 0.8; Ecoli growth: 0.71; HNF4A DNA FP: 3.1

How did Cc1cc([N+](=O)[O-])ccc1NS(=O)(=O)c1ccccc1 do in these assays?
Beta2AR agonist: 5; UCH37 inh: 12; Vif A3G: 6%; Ecoli growth: 0.66; HNF4A DNA FP: -5.7

What do the screens show for `C/C(=N\NC(=O)C1CC1)c1ccc(C)c(C)c1`?
Beta2AR agonist: -15; LANA-H2B inh: 3.5; A1 inh: 0.1; HNF4A DNA FP: 0.0

What do the screens show for `Cc1ccnc(NC(=O)CCc2c(C)nc3ncnn3c2C)c1`?
Beta2AR agonist: -10; LANA-H2B inh: -7.1; UCH37 inh: -3.5; Vif A3G: 3%; A1 inh: -0.9; Ecoli growth: 0.63; HNF4A DNA FP: -2.5

What do the screens show for `CSc1ccc(Cl)c(C(=O)NC2CCCC2)c1`?
Beta2AR agonist: -8; LANA-H2B inh: 3.4; UCH37 inh: 0.7; Vif A3G: 4%; A1 inh: 1.4; Ecoli growth: 0.74; HNF4A DNA FP: -2.4

What do the screens show for `Cc1nnc(SCC(=O)NC2CCCCC2)s1`?
Beta2AR agonist: 9; LANA-H2B inh: 1.6; UCH37 inh: 1.0; Vif A3G: 6%; A1 inh: 0.6; Ecoli growth: 0.7; HNF4A DNA FP: 1.1

Results for CC(=O)c1cccc(NC(=O)/C=C/c2ccc([N+](=O)[O-])s2)c1 ?
Beta2AR agonist: -9; UCH37 inh: 3.5; Vif A3G: 0%; Ecoli growth: 0.66; HNF4A DNA FP: 6.6

What do the screens show for `O=[N+]([O-])c1ccc(CN2CCN(c3ccc(Cl)cc3)CC2)o1`?
Beta2AR agonist: -5; LANA-H2B inh: 4.0; UCH37 inh: 3.0; A1 inh: 0.1; Ecoli growth: 0.64; HNF4A DNA FP: 0.2

Results for O=C(Nc1cc(C(F)(F)F)ccc1Cl)c1cc2nc3c(c(C(F)(F)F)n2n1)CCCC3 ?
Beta2AR agonist: -6; LANA-H2B inh: 5.7; UCH37 inh: -30; Vif A3G: 26%; A1 inh: -0.5; Ecoli growth: 0.76; HNF4A DNA FP: 2.7

How did O=[N+]([O-])c1ccc(N2CCN(CCO)CC2)cc1Sc1nc2ccccc2[nH]1 do in these assays?
Beta2AR agonist: -4; LANA-H2B inh: 5.3; UCH37 inh: 9.7; Vif A3G: -2%; A1 inh: -0.1; Ecoli growth: 0.69; HNF4A DNA FP: 3.2

The final 2 compounds of the section before lead into the next:
Results for O=C(Nc1cc(C(F)(F)F)ccc1Cl)c1cc2nc3c(c(C(F)(F)F)n2n1)CCCC3 ?
Beta2AR agonist: -6; LANA-H2B inh: 5.7; UCH37 inh: -30; Vif A3G: 26%; A1 inh: -0.5; Ecoli growth: 0.76; HNF4A DNA FP: 2.7

How did O=[N+]([O-])c1ccc(N2CCN(CCO)CC2)cc1Sc1nc2ccccc2[nH]1 do in these assays?
Beta2AR agonist: -4; LANA-H2B inh: 5.3; UCH37 inh: 9.7; Vif A3G: -2%; A1 inh: -0.1; Ecoli growth: 0.69; HNF4A DNA FP: 3.2

Results for COc1ccc(-c2cc(C)no2)cc1S(=O)(=O)Nc1cccc(CN2CCCC2)c1 ?
Beta2AR agonist: -6; LANA-H2B inh: 4.1; UCH37 inh: 3.3; A1 inh: 1.1; Ecoli growth: 0.71; HNF4A DNA FP: -3.3

Results for CSc1cccc(NC(=S)N(CCCN2CCCC(C)C2)Cc2cccs2)c1 (stereo not drawn) ?
Beta2AR agonist: 3; LANA-H2B inh: 1.8; UCH37 inh: 5.5; Vif A3G: 4%; A1 inh: 0.3; Ecoli growth: 0.67; HNF4A DNA FP: -0.7

How did CC#CCCCC(=O)Nc1ccc(C(=O)O)cc1 do in these assays?
Beta2AR agonist: 5; LANA-H2B inh: 1.1; UCH37 inh: 2.0; Vif A3G: 25%; A1 inh: -0.7; Ecoli growth: 0.69; HNF4A DNA FP: 3.7

What do the screens show for `CCCCN(C)C(=O)Cn1nc(Cc2ccncc2)c2ccccc2c1=O`?
Beta2AR agonist: -9; LANA-H2B inh: 4.1; UCH37 inh: 2.8; Vif A3G: -11%; A1 inh: 1.5; Ecoli growth: 0.68; HNF4A DNA FP: 2.4

What do the screens show for `CCOC(=O)c1c(NC(=O)CSc2nnc(-c3c[nH]c4ccccc34)n2CC)sc2c1CCCC2`?
Beta2AR agonist: -7; LANA-H2B inh: -1.8; UCH37 inh: -1.2; Vif A3G: -4%; Ecoli growth: 0.81; HNF4A DNA FP: -4.9

Results for COc1cc(C(=O)NCCSc2ccc(Br)cc2)cc(OC)c1OC ?
Beta2AR agonist: 4; LANA-H2B inh: 1.6; UCH37 inh: 2.3; Vif A3G: -3%; A1 inh: 0.6; Ecoli growth: 0.73; HNF4A DNA FP: 0.8

How did Cc1cccc(NC(=O)C2CCN(C(=O)c3ccc(Cl)cc3)CC2)n1 do in these assays?
Beta2AR agonist: -4; LANA-H2B inh: 0.3; UCH37 inh: 3.6; A1 inh: -0.3; Ecoli growth: 0.66; HNF4A DNA FP: 1.3

How did Cc1cc(Cl)ccc1C(=O)C1CCCN(C(=O)c2cccc(N3CCCC3=O)c2)C1 (stereo not drawn) do in these assays?
Beta2AR agonist: -10; LANA-H2B inh: -0.4; UCH37 inh: -0.4; A1 inh: -0.9; Ecoli growth: 0.7; HNF4A DNA FP: -0.9

What do the screens show for `CCOC(=O)c1c(-c2ccc(C)o2)csc1NC(=S)NC(=O)c1ccccc1Br`?
Beta2AR agonist: 2; LANA-H2B inh: -1.0; UCH37 inh: 6.8; Vif A3G: 0%&-2%; A1 inh: -1.4; Ecoli growth: 0.74; HNF4A DNA FP: 1.1

What do the screens show for `CSc1ccc(C(=O)C2CCCN(C(=O)c3cc(C)n(C)n3)C2)cc1` (stereo not drawn)?
Beta2AR agonist: -4; LANA-H2B inh: 1.8; UCH37 inh: 3.5; A1 inh: 0.7; Ecoli growth: 0.66; HNF4A DNA FP: 3.0

The last 3 compounds of the section above open the next one:
How did Cc1cc(Cl)ccc1C(=O)C1CCCN(C(=O)c2cccc(N3CCCC3=O)c2)C1 (stereo not drawn) do in these assays?
Beta2AR agonist: -10; LANA-H2B inh: -0.4; UCH37 inh: -0.4; A1 inh: -0.9; Ecoli growth: 0.7; HNF4A DNA FP: -0.9

What do the screens show for `CCOC(=O)c1c(-c2ccc(C)o2)csc1NC(=S)NC(=O)c1ccccc1Br`?
Beta2AR agonist: 2; LANA-H2B inh: -1.0; UCH37 inh: 6.8; Vif A3G: 0%&-2%; A1 inh: -1.4; Ecoli growth: 0.74; HNF4A DNA FP: 1.1

What do the screens show for `CSc1ccc(C(=O)C2CCCN(C(=O)c3cc(C)n(C)n3)C2)cc1` (stereo not drawn)?
Beta2AR agonist: -4; LANA-H2B inh: 1.8; UCH37 inh: 3.5; A1 inh: 0.7; Ecoli growth: 0.66; HNF4A DNA FP: 3.0

What do the screens show for `COc1ccc(SCCc2nnc(-c3ccccc3)o2)cc1`?
Beta2AR agonist: -10; LANA-H2B inh: -0.7; UCH37 inh: 2.0; Vif A3G: -3%; A1 inh: 0.4; Ecoli growth: 0.67; HNF4A DNA FP: 3.3

How did Cc1ccc2nc(C3CCCN3Cc3nc(CCC(C)C)no3)[nH]c2c1 (stereo not drawn) do in these assays?
Beta2AR agonist: -6; LANA-H2B inh: 1.5; UCH37 inh: 3.7; Vif A3G: -5%; A1 inh: -0.5; Ecoli growth: 0.71; HNF4A DNA FP: 2.5

Results for O=C(O)c1cccc(CSc2nnc(-c3ccc(Cl)cc3)o2)c1 ?
Beta2AR agonist: 11; LANA-H2B inh: -3.4; UCH37 inh: 4.2; Vif A3G: -4%; A1 inh: -0.3; Ecoli growth: 0.69; HNF4A DNA FP: 1.1

How did CCOC(=O)c1ccc(NC(=O)COc2ccccc2CNCCc2ccccc2)cc1 do in these assays?
Beta2AR agonist: 8; LANA-H2B inh: 2.1; UCH37 inh: 1.9; Vif A3G: -6%; A1 inh: 0.8; Ecoli growth: 0.62; HNF4A DNA FP: -3.0

Results for Cc1nnc(Sc2cc(C(=O)NCc3ccco3)c3ccccc3n2)s1 ?
Beta2AR agonist: -5; LANA-H2B inh: 0.1; UCH37 inh: 1.5; Vif A3G: 15%; A1 inh: 0.6; Ecoli growth: 0.73; HNF4A DNA FP: -0.2

Results for CC(=O)c1ccc(Sc2nnnn2-c2ccccc2)c([N+](=O)[O-])c1 ?
Beta2AR agonist: -15; LANA-H2B inh: 1.8; UCH37 inh: 9.5; Vif A3G: 7%; A1 inh: 0.1; Ecoli growth: 0.67; HNF4A DNA FP: 1.9

What do the screens show for `Cc1cc(Cl)ccc1NC(=O)Cn1cncn1`?
Beta2AR agonist: 14; LANA-H2B inh: 0.7; UCH37 inh: 2.2; Vif A3G: inconclusive; A1 inh: -0.8; Ecoli growth: 0.65; HNF4A DNA FP: 0.1

From PubChem BioAssay
